Source: PubChem BioAssay (several laboratories)
Vif TR-FRET: HIV-1 Vif–A3G interaction blockers – biochemical, TR-FRET, GST-Vif 1-94, biotin-A3G peptide, dose response retest, primary screen (AID 1117319). inhibition, %, or IC50 in µM where a hit was titrated. hit rate 0.57% among 260,000. TR-FRET GST-Vif / biotin-A3G peptide binding; higher % means a stronger effect; test concentration not given here; strong numbers were not always called active;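 active = above the screen mean plus three standard deviations and confirmed in dose response; inconclusive = results disagree or hit not tested in dose response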;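 also: Vif residues 1-94 fused to GST binding biotinylated APOBEC3G peptide 110-148; 0% = full assay without inhibitor and 100% = GST in place of GST-Vif; retest series ran down from 100 µM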
Ecoli rRNA inh: inhibitors of bacterial rRNA selective over humanized ribosomes; E. coli WT GFP vs humanized-ribosome RFP mutants, fluorescence, 24 h; stronger effect = lower value; DMSO median 0, no signal -100; GFP signal change (wild-type ribosome), % (test concentration not listed); hit rate 1.6% among 350,000; AID 720706;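 active = significant combined selectivity score with lowered wild-type GFP, culture density cut under 30%, mutant RFP and density less affected; inactive = any of these conditions unmet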; also: one replicate is shown; some compounds called inactive have numbers as strong as hits
Calb FLC: C. albicans growth modulation with fluconazole; C. albicans CaCi-2 (fluconazole-resistant clinical isolate) + fluconazole, Alamar Blue growth, 48 h; growth inhibition, % (no concentration beside the values); hit rate 0.57% among 300,000;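 active = most replicates above 75%; inconclusive = exactly half above 75%; inactive = most below 75%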;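 also: all wells also contain fluconazole at 8 µg/ml as a sub-toxic cotreatment; 0% = median of DMSO wells and 100% = median of geldanamycin control wells; wells of about 8 µL received 7.5 nL stock; the first replicate is given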
Bfl-1 A1 inh: inhibitors of the anti-apoptotic protein A1, read as caspase activation. hit rate 0.066% among 330,000. MEF A1-2A-BIM cells, Caspase-Glo 3/7 luminescence, 3 h; percent of clofoctol response, vehicle zero. caspase activation, % (concentration not given with the values). AID 2462;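 active = over half of replicate activation scores above 10%, or exactly half above 10 with the replicate mean above 10; inconclusive = replicate mean below 10 yet half the replicates above 10; inactive = over half of replicates below 10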;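 also: wells of about 30 µL received 50 nL stock; many hits fall short of the cut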
Beta cell apopt: beta cell apoptosis inhibition. INS-1E cytokine-induced death, ATP luminescence, 48 h; percent of positive-control rescue, neutral wells zero. hit rate 0.8% among 300,000. protection from apoptosis, % (no concentration beside the values);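 active = all replicates at 75% or more, or half of them and the mean; inconclusive = half reach 75% but not the mean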;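 also: 0% = cytokine-treated negative control wells and 100% = positive control rescue; higher means more ATP so stronger rescue from cytokine killing; wells of about 40 µL received 100 nL stock; the first replicate is given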
RanGTP-Impb inh: disruptors of Ran-importin-beta complex formation – biochemical, FRET, CFP-Ran, YFP-importin-beta, homogeneous, primary screen | inhibition, % (no concentration beside the values) | hit rate 1.1% among 300,000 | cell-free CFP-Ran/YFP-importin-beta FRET ratio;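 active = most replicates above 15%; inconclusive = exactly half above 15%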;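 also: 0% = DMSO wells and 100% = Ran loaded with GDP instead of GTP; wells of about 40 µL received 100 nL stock; the first replicate is given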
T cruzi repl: T. cruzi replication inhibition; inhibition, % (no concentration beside the values); hit rate 1.4% among 300,000; T. cruzi beta-gal in NIH3T3, luminescence, 90 h;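 active = mean inhibition across valid replicates above about 55%, limit read from the data; inconclusive = mean below that limit but half or more replicates reach it; inactive = mean below it, under half of replicates reach it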;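 also: signal also drops with host cell toxicity which is not excluded here; 0% = plate median of DMSO wells and 100% = zero luminescence signal; higher percent means less beta-gal luminescence so fewer parasites; stock transfer was 50 nL into about 50 µL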
AF4-AF9 inh: MLL-AF4/AF9 protein interaction inhibition | P42568 | AlphaScreen, biotin-AF4 peptide binding to FLAG-AF9 | inhibition, % at 10 µM | hit rate 0.47% among 350,000 | AID 651704;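 active = every replicate reaching a set inhibition limit, whatever the replicate mean, cut at about 25% in these data; inconclusive = mean inhibition reaches that limit but some replicates miss it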;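 also: 0% = plate neutral control median and 100% = total signal loss; the record names both 10 and 1 µM as test concentration; the first replicate is given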
Target sequence (P42568 whole entry, looked up): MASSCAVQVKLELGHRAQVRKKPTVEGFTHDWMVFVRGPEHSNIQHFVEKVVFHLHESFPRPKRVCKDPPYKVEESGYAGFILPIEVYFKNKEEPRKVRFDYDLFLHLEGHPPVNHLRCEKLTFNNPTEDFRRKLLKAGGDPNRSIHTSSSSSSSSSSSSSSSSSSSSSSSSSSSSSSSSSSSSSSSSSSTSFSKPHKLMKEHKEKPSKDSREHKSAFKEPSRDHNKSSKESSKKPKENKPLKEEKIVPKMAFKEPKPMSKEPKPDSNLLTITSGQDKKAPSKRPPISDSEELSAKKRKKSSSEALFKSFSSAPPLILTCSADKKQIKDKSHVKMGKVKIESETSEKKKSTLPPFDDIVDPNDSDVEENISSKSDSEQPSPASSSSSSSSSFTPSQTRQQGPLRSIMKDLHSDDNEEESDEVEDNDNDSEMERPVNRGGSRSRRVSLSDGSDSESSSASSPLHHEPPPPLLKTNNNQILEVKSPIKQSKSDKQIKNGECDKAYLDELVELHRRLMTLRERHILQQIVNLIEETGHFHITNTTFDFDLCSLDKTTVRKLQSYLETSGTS
Ecoli rRNA inh OD600: recorded beside Ecoli rRNA inh, whose call it bears; OD600 change, %; measured here: OD600 growth;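 optical density of the mix in the first replicate; 0 = DMSO median and -100 = no signal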
Ecoli rRNA inh RFP: further read-out of Ecoli rRNA inh, marked with its call; RFP signal change, %; measured here: RFP humanized mutant strains;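 first replicate; 0 = DMSO median and -100 = no signal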
Active calls of the source: *; ? = inconclusive; . = not tested or not shown; & = joins results of further samples.

SMILES	Vif TR-FRET	Ecoli rRNA inh	Ecoli rRNA inh OD600	Ecoli rRNA inh RFP	Calb FLC	Bfl-1 A1 inh	Beta cell apopt	RanGTP-Impb inh	T cruzi repl	AF4-AF9 inh
COc1ccc(-c2csc(NC(=O)COC(=O)Cc3ccc(Cl)cc3Cl)n2)cc1	-3%	.	.	.	5	-4.5	2	-1.1	-13	.
CCOC(=O)N1CCC(N2CCN(Cc3ccc(C)o3)C(CCO)C2)CC1 (centres undefined)	2%	13	18	-1.1	-19	-0.1	-6	5.5	15	-0.2
Cc1ccnc(NC(=O)CCCOc2ccccc2)c1	8%	6	2	1.5	4	1.1	-18	-1.8	-6	-8.6
COc1cc(C[C@H](C)[C@H](C)Cc2ccc3c(c2)OCO3)ccc1O	-1%	.	.	.	-9	0.9	-11	-0.4	3	.
CC1(C)N([O-])C2=C(c3ccccc3C2=O)[N+](=O)C1(C)C	9%	.	.	.	0	0.0	-7	0.5	-5	.
O=C(COC(=O)COc1cccc(F)c1)NCC1CCCCC1	.	6	10	1.6	.	0.9	-4	.	.	-0.4
CCOC(=O)Cc1csc(NC(=O)NC2(C(F)(F)F)Oc3ccccc3O2)n1	9%	.	.	.	-2	0.2	-7	-1.2	-21	.
CN1CC(=O)NC1=NC(=O)C12CC3CC(CC(C3)C1)C2	14%	.	.	.	-2	0.2	-3	5.1	-4	.
Cc1onc(-c2ccccc2Cl)c1C(=O)OCC(=O)c1ccccc1	5%	-22*	3.4*	-2.1*	1	-0.1	-3	0.8	2	-6.2
C#CCNC(=O)C1=C[C@H](C2CCCCC2)C[C@H](OCCCCO)O1	9%	2	7	-6.4	-6	2.2	-7	3.8	3	-1.5&-3.3
Cc1ccc(C(=O)OCCc2sc[n+](Cc3ccccc3)c2C)cc1	-3%	8	6	-8.5	-23	0.6	-1	-5.1	5	-3.3
CN(Cc1cnccn1)C(=O)CC1C(=O)NCCN1CC(c1ccccc1)c1ccccc1 (centres undefined)	1%	11	11	-3.9	-38	-0.2	-4	0.8	-1	3.1
Cc1ccc(NC(=O)C/C(N)=N/OC(=O)Nc2cccc(Cl)c2)cc1	.	-66	-81	-20	.	1.8	0	.	.	-3.8
O=C(CSc1nnc(CNC(=O)c2cccs2)o1)c1ccc(Cl)cc1	?	.	.	.	5	-0.3	5	2.9	-6	.
O=C(NC1(C(F)(F)F)N=C2SCCN2C1=O)c1cccnc1 (centres undefined)	4%	.	.	.	3	0.1	-5	-2.0	8	-2.5
COC(=O)c1ccc(Cl)c(NC(=O)CN2CCOCC2)c1	6%	.	.	.	13	0.3	3	-0.4	4	.
Cc1ccccc1-n1c(SCC(=O)NCc2cccs2)nc2ccccc2c1=O	3%	.	.	.	?	0.0	-1	2.2	4	.
Cc1ccccc1CS(=O)(=O)CCC(=O)NCCCN1CCN(c2ccccc2F)CC1	8%	3	3	2.8	-5	-0.1	-5	0.6	8	.
O=C(O)C1CC(=O)n2c(nc3ccccc32)S1 (centres undefined)	20%	.	.	.	3	0.4	-1	-3.8	-3	.
O=C(Cn1nnc(-c2ccc(F)cc2)n1)N1CCCCC1	-7%	3	0	-6.0	-2	0.6	-1	-1.7	-6	-1.7
CCCCn1c(=S)[nH]c2ccc(N3CCOCC3)cc2c1=O	-4%	.	.	.	31	0.1	.	-14	-7	.
O=C(NC(Cc1ccc(O)cc1)C(=O)O)c1ccc2c(c1)OCO2 (centres undefined)	1%	5	13	-1.8	.	0.3	-4	.	.	-1.4
O=C(Nc1cccs1)Nc1cccnc1Cl	-7%	2	4	2.7	11	-2.4	26	-0.8	-1	0.8
CCO[C@H]1OC(C(N)=O)=C[C@@H](c2coc3ccccc3c2=O)[C@@H]1CCCO	.	-2	12	-0.6	-5	1.4	1	0.9	-6	0.0
O=C(CN(CC1CCCO1)C(=O)CNS(=O)(=O)c1ccccc1)NCCc1ccccc1 (centres undefined)	.	2	1	-1.3	5	-0.2	-1	?	7	0.7
SMILES	Vif TR-FRET	Ecoli rRNA inh	Ecoli rRNA inh OD600	Ecoli rRNA inh RFP	Calb FLC	Bfl-1 A1 inh	Beta cell apopt	RanGTP-Impb inh	T cruzi repl	AF4-AF9 inh
O=C(CCCn1c(=O)c2ccccc2n(CC(=O)NCc2ccco2)c1=O)NCc1ccco1	5%&-2%	.	.	.	-11	-1.8	-5	1.6	-1	.
CCN(CC)CCN(C(=O)Cn1nnc(-c2ccc(C)o2)n1)C(C(=O)NC(C)(C)C)c1cccs1 (centres undefined)	-12%	10	10	4.9	-18	0.3	-2	?	0	2.7
COCCCNC(=O)CSc1nc2ccccc2c(=O)n1Cc1ccc2c(c1)OCO2	-5%	14	12	-1.1	-3	1.4	-3	?	1	-0.2
C/C(=N\NC(N)=S)C1(C)CC2(CC(C)(C)OC2=O)C(=O)O1 (centres undefined)	0%	13	-1	1.1	-7	0.6	-3	4.6	-3	-0.2
CC(=O)N1CCN(S(=O)(=O)c2ccc(C)cc2)C1c1ccc(N(C)C)cc1 (centres undefined)	0%	.	.	.	20	-0.4	3	-3.9	7	.
Cn1c(N2CCN(C(=O)Nc3ccc(C(F)(F)F)cc3)CC2)nc2ccccc21	-6%	.	.	.	-5	0.1	5	3.1	20	.
COc1ccccc1N(CC(=O)N1CCCC1)S(=O)(=O)c1cc([N+](=O)[O-])ccc1Cl	.	-18	-10	-1.6	.	1.5	-1	.	.	5.0
O=S(=O)(/N=C(/Nc1ccccn1)c1ccccc1)c1ccccc1	1%	8	-4	-1.0	-16	-0.9	-8	7.3	10	-0.9
Cc1ccc(-n2cc(C(=O)c3cc(Cl)ccc3O)cc(C#N)c2=O)cc1	-1%	.	.	.	6	-0.6	7	4.0	-6	.
O=C1C(C=NCCCn2ccnc2)=C(O)c2ccccc21	-7%	.	.	.	-10	-0.8	.	-0.2	-18	.
CCOC(=O)c1c(NC(=O)OC)sc(C(=O)N(C)C)c1C	3%	.	.	.	19	0.6	-15	5.6	-2	.
CC(C)(C)NC(=O)Cn1nc(C(F)(F)F)c2c1CCCC2	5%	6	10	2.8	-2	0.3	0	0.2	-5	-0.8
NNC(=O)CCN(Cc1ccco1)S(=O)(=O)c1ccc(Cl)cc1	-5%	-13	7	1.0	1	0.2	2	0.8	-6	1.1
CC1CCCCN1CC(=O)Nc1cc(S(=O)(=O)N2CCOCC2)ccc1N1CCCC1 (centres undefined)	-13%	5	-1	-2.7	-16	0.7	-2	-28	4	1.2
COC(=O)c1[nH]c2ccc(C)cc2c1NC(=O)Nc1ccccc1OC	0%	.	.	.	12	0.4	8	1.0	-6	.
Cc1cc(C)cc(NC(=O)CCn2c(=S)[nH]c3ccccc3c2=O)c1	.	1	10	-4.4	16	1.0	9	0.1	4	1.4
Fc1ccc(-n2nnc(-c3cccnc3Cl)n2)cc1	.	4	9	-6.8	1	-8.2	-2	-3.1	0	-2.6
C=CCc1ccc(OCC(O)CN2CCN(c3ccccc3OC)CC2)c(OC)c1 (centres undefined)	-3%	-4	-12	3.0	-20	0.0	0	1.6	14	8.1
Cc1cc2cc(CNC(=O)COc3ccccc3)ccc2n1C	2%	4	0	31	-4	0.6	1	2.0	-7	-8.7
C=CCOc1cccc(C(=O)N2CCCC(CCC(=O)NCc3ccccc3F)C2)c1 (centres undefined)	-13%	1	14	0.3	3	0.5	0	-2.6	12	-2.0
CCOC(=O)Cc1csc(NC(=O)c2cc(-c3ccncc3)nc3ccccc23)n1	.	-35	-38	-8.7	.	0.2	2	.	.	3.2
CN(C[C@H](Cc1ccccc1)N(C[C@H](Cc1ccccc1)N(CCc1cc(C(F)(F)F)cc(C(F)(F)F)c1)N=O)N=O)N=O	-2%	0	0	-0.4	-18	0.6	2	6.4	14	-4.6
COc1ccc(C2C=C(c3ccccc3)Nc3nc(NC(C)=O)nn32)cc1 (centres undefined)	0%	.	.	.	-1	1.3	.	1.2	5	.
CC(NC(=O)/C(=C\c1ccco1)NC(=O)c1ccccc1Br)C(=O)O (centres undefined)	18%	16	11	1.6	0	-1.0	-9	6.9	-3	-1.0
Nc1cc(N)nc(SCC(=O)NCc2ccc3c(c2)OCO3)n1	.	9	12	0.9	.	-0.3	-7	.	.	-6.1
SMILES	Vif TR-FRET	Ecoli rRNA inh	Ecoli rRNA inh OD600	Ecoli rRNA inh RFP	Calb FLC	Bfl-1 A1 inh	Beta cell apopt	RanGTP-Impb inh	T cruzi repl	AF4-AF9 inh
COc1ccc2cc(C(=O)N3CCN(c4ccc(F)cc4)CC3)[nH]c2c1	-12%	-8	-19	0.1	-8	0.6	-4	?	-6	-0.5
CCC(C)c1ccccc1NC(=S)NC(=O)c1ccco1 (centres undefined)	-7%	4	13	2.2	-14	-0.2	-10	3.4	5	-7.3
COc1ccc(C2C3=C(CC(C)(C)CC3=O)N(C)C3=C2C(=O)CC(C)(C)C3)cc1OC	-8%	0	0	-2.9	-2	0.6	-6	9.2	-1	2.5
Cn1c(Cn2nnc3ccccc32)nnc1SCC(=O)N1c2ccccc2CCc2ccccc21	?	-3	3	7.4	5	-0.1	6	-0.9	20	8.9
C=CCn1c(COc2ccccc2F)nnc1SCC(=O)c1c[nH]c2ccccc12	22%	-11	-4	-2.5	7	-0.1	-10	0.5	17	-3.7
CCOc1ccc(NC(=O)c2cn(CC(C)C)c(=O)c3c2c2ccccc2n3C)cc1	.	.	.	.	-1	-0.7	3	5.0	16	.
COc1ccc(CN(C)C(=O)CC(c2ccccc2)c2ccccc2)cc1	.	-34	-58	-5.6	-3	0.2	-14	2.6	27	0.4
COc1ccccc1C(=O)NCCC(=O)Nc1cccc(C)n1	.	2	0	-2.9	-1	0.4	4	2.1	-11	-7.6
Cc1cccc(-c2nc3cc([N+](=O)[O-])ccc3o2)c1	4%	6	12	-1.9	-6	-7.6	2	-3.0	-11	-0.3
CC(C)(C)C(=O)CN1C2=NCCN2c2ccccc21	.	4	9	1.9	-12	0.1	-8	4.3	-23	-5.9
Cn1c(NC(=O)c2ccc(C(C)(C)C)cc2)cc(=O)n(C)c1=O	25%	10	16	2.2	.	0.6	5	.	.	-4.1
Cc1cccc(NC(=O)COc2cccc3c2CCN(Cc2ccccc2)C3=O)c1C	.	-4	19	-0.4	-7	0.0	0	6.6	4	3.3
O=C(O)c1ccccc1OCc1ccccc1Br	.	-13	-3	4.5	26	-0.4	7	4.1	-8	-3.1
Cc1ncc([N+](=O)[O-])n1CC(=O)Nc1ccccc1	11%	16	0	14	-5	0.1	-8	0.4	-13	-2.2

This is a subset; count on the stated rates, not on these rows.
